NPYLR7 agonist: mosquito NPYLR7 agonism; 270,000 compounds, 0.15% hits; AID 1259423; HEK293T NPYLR7/Galpha15, GCaMP6s calcium fluorescence; activation, % at 10 µM; in the data active = activation above about 40%;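 note: 0% = vehicle and 100% = reference agonist at the receptor; some compounds past the cut are filed as inactive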
NPYLR7 agonist max-min: further read-out of NPYLR7 agonist, marked with its call; activation, %; measured here: Max-Min RFU normalised activation; some inactives read as strong as hits;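 span of the calcium signal over five minutes; 0% = vehicle and 100% = native peptide agonist; compound fluorescence can raise it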
* hit, by the source's call; & = joins results of further samples. Not all compounds are listed; the hit share may differ from the screen's.

SMILES | NPYLR7 agonist | NPYLR7 agonist max-min
O=C(OCc1nnnn1-c1ccccc1)C1CC2CCCC(C1)C2=O (stereo not drawn) | 1.0 | -4.7
CCCn1c(=O)c2c(nc3n2CC(C)CN3c2cccc(Cl)c2)n(C)c1=O (stereo not drawn) | 10.9 | 8.7
O=C(c1ccco1)N(Cc1ccccn1)CC1CCCO1 (stereo not drawn) | -3.5 | -9.0
COc1ccc(CCN(Cc2ccc(C)o2)C(=O)CN(CCN2CCCC2)C(=O)c2ccc(Cl)cc2Cl)cc1OC | 1.0 | 4.0
COc1ccc(-c2nc(N)nc(C(F)(F)F)c2-c2csc(C)n2)c(O)c1 | -7.6 | -9.0
Cc1ccc(-c2csc(-n3nc(C)cc3NC(=O)c3ccc(F)cc3)n2)cc1 | -7.6 | -14.9
CSc1ccc(/C=N\NC(=O)CSc2nnc(-c3ccc(Cl)cc3)n2-c2ccccc2)cc1 | -4.2 | -8.2
COc1cccc(Nc2nn(-c3ccc(F)cc3)c(=S)s2)c1 | 9.9&-0.8 | 7.5&-4.5
CCOC1(c2ccc(OC)cc2)N=C2ON=CN=C2N1OCC(=O)c1ccc(OC)cc1 (stereo not drawn) | -0.8 | -2.2
CC/C=C(/C)C(=O)Nc1ccccc1OCCN1CCN(C)CC1 | 3.0 | 4.6
CCCc1ncncc1C(=O)N1CCCC2(CNC(=O)O2)C1 (stereo not drawn) | -1.5 | -5.9
O=c1cc(CSc2nncs2)nc2sccn12 | 0.2 | 7.4
O=c1[nH]c(-c2ccc3c(c2)OCCO3)nc2sc(-c3ccccc3)cc12 | 5.9 | 1.7
CC(C)CNc1ccc2c(n1)C(=O)N([C@H](C)C(=O)NCC1CCCCC1)C2 | 5.5 | 1.3
CCc1cc(C)cc(OCCOc2ccccc2/C=N\n2cnnc2)c1 | -1.4 | -2.3
Nc1cnn(-c2ccc(C(F)(F)F)cc2)c1 | -4.4 | -4.1
CC(C)CCn1c(N2CCN(Cc3ccc(Br)cc3)CC2)nc2c1c(=O)[nH]c(=O)n2C | -0.2 | 56.6
CCOC(=O)N1CCN(C(=O)CSc2ccc3nnc(-c4cccnc4)n3n2)CC1 | 0.8 | -0.5
Cc1ccc(C(=O)Nc2cc(Cl)ccc2N2CCN(C)CC2)cn1 | 2.4 | 0.2
CC(=O)Nc1ccc(C=C2N=C(c3ccc(F)cc3)OC2=O)cc1 | -0.2 | 4.9
COc1ccc(Cc2nn3c(SCC(=O)Nc4ccc(C)cc4)nnc3[nH]c2=O)cc1 | -0.7 | -3.1
O=C(Cn1cnc2sccc2c1=O)c1ccc(Cl)s1 | 0.8 | 5.1
CSCCC1NC(=O)c2ccccc2N(CC(=O)N(C)CCc2ccccc2)C1=O (stereo not drawn) | 0.9 | 5.0
COCCCNCc1csc(COc2ccc(C)c(C)c2)n1 | 25.1 | 20.8
O=C(Nc1nc2ncccc2cc1-c1ccccc1)C1CCCCC1 | -0.3 | 4.5
Cc1ccc(NC(=O)N(Cc2cccc(OS(=O)(=O)c3ccc(F)cc3)c2)C(C)C)cc1C | -2.2 | 1.7
Cc1ccc(C)c(NC(=O)CN(C)C(=O)C(C)NC(=O)OCc2ccccc2)c1 (stereo not drawn) | 9.1 | 5.3
Cc1nc(NC(=O)c2c(-c3ccccc3)c(-c3ccccc3)n[nH]c2=O)sc1C | -7.9 | -9.0
Cc1ccc(-c2cc3c(=O)n(Cc4nc(-c5ccc(OC(C)C)cc5)oc4C)ccn3n2)cc1C | -4.4 | -8.5
COc1ccc(Cc2ncc3c(n2)CN(C(=O)C2CCC(=O)NC2)C3)cc1 (stereo not drawn) | 8.7 | -6.6
CSc1nnc2c(n1)OC(c1cccc(O)c1)Nc1ccccc1-2 (stereo not drawn) | -8.4 | -11.0
CC1=NN(c2ccc(Cl)c(Cl)c2)C(=O)/C1=C/c1ccc(Br)cc1 | -4.6 | 2.2
CC(C)=C1C2CCC1C(C(=O)Nc1ccon1)C2C(=O)O (stereo not drawn) | -15.2 | -20.4
O=C(C1=COCCO1)N(Cc1cccnc1)c1nc2c(F)cccc2s1 | -5.7 | -0.8
CCSCCOC(=O)C1=C(C)N(C)C(=O)NC1c1ccc(Cl)c(Cl)c1 (stereo not drawn) | 6.0 | 3.7
COc1ccc(CCNC(=O)COc2ccc(SC)cc2)cc1 | 0.1 | -2.1
Cc1ccc(C(=O)N2CCN(Cc3ccc(-c4noc(-c5ccccc5)n4)cc3)CC2)c(Cl)n1 | 5.1 | 7.0
Cc1ccc(S(=O)(=O)N2CCN(c3ccccc3O)CC2)cc1 | 10.2 | 8.8
c1csc(-c2nc(-c3ccsc3)[nH]c2-c2cccs2)c1 | 21.3 | 16.9
CCOC(=O)CCC(=O)N1CCC(Cc2ccc(OC)cc2)CC1 | 12.0 | 8.3

A stretch of the results above:
SMILES | NPYLR7 agonist | NPYLR7 agonist max-min
COc1ccc(Cc2nn3c(SCC(=O)Nc4ccc(C)cc4)nnc3[nH]c2=O)cc1 | -0.7 | -3.1
O=C(Cn1cnc2sccc2c1=O)c1ccc(Cl)s1 | 0.8 | 5.1
CSCCC1NC(=O)c2ccccc2N(CC(=O)N(C)CCc2ccccc2)C1=O (stereo not drawn) | 0.9 | 5.0
COCCCNCc1csc(COc2ccc(C)c(C)c2)n1 | 25.1 | 20.8
O=C(Nc1nc2ncccc2cc1-c1ccccc1)C1CCCCC1 | -0.3 | 4.5

The list continues.
SMILES | NPYLR7 agonist | NPYLR7 agonist max-min
Cn1cnc2c1c(=O)n(CCCSc1n[nH]c(-c3cccs3)n1)c(=O)n2C | -1.7 | 0.7
O=[N+]([O-])c1cccc(C=NNC2=Nc3cccc4cccc2c34)c1 | 12.7 | 5.7
CCOc1ccc(-c2nc(N3CCCC(CO)C3)c3ccccc3n2)cc1 (stereo not drawn) | -2.3 | 3.7
O=C1CCSc2ccc(C(=O)N3CCCC3c3ccsc3)cc2N1 (stereo not drawn) | 6.0 | 3.4
CN1C(=O)N(CC(=O)Nc2sccc2C(N)=O)C(=O)C12CCCCC2 | 1.4 | 0.3
C=C(C)Cn1c(SCC(=O)N/N=C\c2ccccn2)nnc1-c1ccc(Br)cc1 | -6.8 | -16.6
CCC(=O)Nc1cccc(-n2nc(OC)nc2-c2cccs2)c1 | 12.7 | 23.2
Cc1ccccc1C(=O)NCCn1cc(SCC(N)=O)c2ccccc21 | -1.6 | -3.1
CCOC(=O)N1CCN(c2ncc3c(n2)CC(c2ccccc2F)CC3=O)CC1 (stereo not drawn) | 17.3 | 4.8
CCc1nc2c(OCCOc3ccc(F)cc3)cccn2c1N(C)C(=O)c1ccco1 | 7.1 | -7.4
Oc1ccc(C=Nn2c(Cc3cccc4ccccc34)n[nH]c2=S)cc1O | -1.1 | 0.7
OC(COCc1ccccc1)CN(Cc1cccc(F)c1)CC1CC(c2ccc(Cl)c(Cl)c2)=NO1 (stereo not drawn) | -3.4 | 1.9
O=C(NCCC1CCCN(Cc2ccco2)C1)c1cccc(O)c1 (stereo not drawn) | 2.7 | -1.3
CCN(CC)S(=O)(=O)c1c(C)nn(S(=O)(=O)c2ccc(Cl)c(Cl)c2)c1C | 2.2 | -1.1
Cc1ccccc1-c1nc(OCC(C)C)nn1-c1ccc(NC(=O)c2ccc(C(F)(F)F)cc2)cc1 | 3.8 | 3.8
Cc1[nH]n(-c2ccccc2)c(=O)c1N=Nc1ccc(Cl)cc1Cl | -4.0 | -11.0
COc1ccc(C=C2C(=O)N(C)c3ccccc32)cc1Br | 3.0 | 2.6
COc1ccc(C)cc1C(O)CN1CCOC(c2ccc(F)cc2)C1 (stereo not drawn) | 2.9&7.3 | 2.5&4.2
COc1ccc(-c2ncncc2Oc2ccccc2OC)c(O)c1 | 3.7 | 0.9
CCOC(CNc1c([N+](=O)[O-])c(=O)n(C)c(=O)n1C)OCC | -5.1 | -7.4

Laid out differently: results already given
Below each SMILES: NPYLR7 agonist	NPYLR7 agonist max-min
COc1ccc(C=C2C(=O)N(C)c3ccccc32)cc1Br
→ 3.0	2.6
Cc1ccc(S(=O)(=O)N2CCN(c3ccccc3O)CC2)cc1
→ 10.2	8.8
CSc1ccc(/C=N\NC(=O)CSc2nnc(-c3ccc(Cl)cc3)n2-c2ccccc2)cc1
→ -4.2	-8.2

Going on with the list:
SMILES | NPYLR7 agonist | NPYLR7 agonist max-min
O=C(CN1C(=O)c2ccccc2C1=O)Nc1ccc(S(=O)(=O)N2CCCC2)cc1 | 2.1 | 4.8
CC(C)c1cc(C(=O)N2CCC3(CN(C)C(=O)O3)C2)no1 (stereo not drawn) | 0.9 | -2.6
CCOc1nc(NCc2cccnc2)nc(NC(C)(C)CO)n1 | 8.8 | 10.3
CCCNC(=O)CNC(=O)c1cc2c(s1)CCC(CC)C2 (stereo not drawn) | 0.9 | -3.0
O=C1Cc2cc(-c3cc(NCc4cccnc4)nc4[nH]ccc34)ccc2N1 | -6.1 | -9.1
CCOc1cccc2sc(N(Cc3ccccn3)C(=O)C3CCCCC3)nc12 | -1.0 | -4.1
C=c1nc(N)sc1=C1NNC(=NC)S1 | -2.4 | -10.0
COc1cccc(-n2nnc3c(=O)n(Cc4ccc(C)cc4)cnc32)c1 | -0.1 | 2.1
Cc1cccc2sc(N(CCCN(C)C)C(=O)c3cccs3)nc12 | 3.2 | 1.3
CC1=CC(=C(C#N)C#N)C=C(C)N1c1ccc(OCc2ccccc2)cc1 | 2.7 | -0.4
CCc1nc2ccc(C(=O)NCc3cccs3)cn2c1N(C)Cc1ccc(N(C)C)cc1 | -2.3 | -12.1
C#CCOCC(O)CN(Cc1c(-c2ccccc2)nn(C)c1Oc1cccc(OC)c1)CC(C)C (stereo not drawn) | -5.2 | 14.3
COC(=O)[C@H](C)NC(=O)Cc1csc(-c2ccccc2)n1 | 9.3 | -2.4
Cc1ccc(C2SCCN2S(=O)(=O)c2ccc(Br)cc2)cc1 (stereo not drawn) | 8.0 | 2.3
O=C(Cc1ccccc1Cl)OCc1cc(-c2ccc3c(c2)OCCO3)on1 | -1.2 | -3.2
CCC(C)CN(CC(=O)N(Cc1ccccc1)Cc1ccc(C)s1)S(=O)(=O)c1ccc(NC(C)=O)cc1 (stereo not drawn) | 4.9 | -1.8
O=C1NC2(CCN(C(=O)c3ccc(C(F)(F)F)cc3)CC2)Nc2ccc(Cl)cc21 | 1.3 | 11.6
CC1(C)C(=O)Nc2ccccc2N1C(=O)CNc1ccc2c(c1)OC(F)(F)O2 | 2.5 | -2.6
COc1ccccc1-c1onc(C)c1C(=O)NCC1CCCO1 (stereo not drawn) | 0.1 | -0.8
Cc1cc(=O)c2c([nH]1)c(C)cc1c(C)c(C)n(C)c12 | 1.5 | 0.3
COc1ccc(C(=O)Nc2ccc(NC(=O)c3ccccc3)c(C)c2)cc1[N+](=O)[O-] | -0.1 | 1.8
COc1ccc(-c2nc(N)sc2CC(=O)O)cc1 | 0.2 | 16.1
CCCC1COC(Cn2cncn2)(c2ccc(C)cc2)O1 (stereo not drawn) | 1.2 | 16.1
Cc1ccc(N=Cc2nc(-c3ccccc3F)oc2O)cc1 | -4.5 | -5.0
Brc1ccc2c(c1)CN(Cc1ccc3c(c1)OCO3)CO2 | -4.7 | -5.8
O=C1NC(=S)NC1=Cc1ccc(Br)cc1 | 7.4 | 9.7
O=C(CSc1nc(Cl)cc(N2CCN(C(=O)C3CCCC3)CC2)n1)N1CCN(C/C=C/c2ccccc2)CC1 | -3.0 | -1.6
CCCCSc1nnc2c(n1)OC(c1cc(OC)c(OC)c(OC)c1)Nc1ccccc1-2 (stereo not drawn) | -4.7 | -12.1
CCOC(=O)c1cn[nH]c1S(=O)(=O)N1CCC(C)CC1 | 0.9 | -1.4
CC(C)CCN(Cc1c(-c2ccccc2)noc1N1CCN(C)CC1)C(=O)c1cccc(Br)c1 | 4.4 | 11.9
Oc1cccc2ccc(C=Cc3cccc(Br)c3)nc12 | -0.3 | 5.1
CC(C)c1nnc(SCc2cccnc2)c2c1cnn2-c1ccccc1 | -11.8 | -19.5
O=C(Nc1ccccc1)c1ccc(Cl)c(S(=O)(=O)NCc2ccccc2)c1 | -4.1 | -8.0
CCSc1nnc2c(n1)OC(c1c(Br)cc(Br)c(O)c1Br)Nc1ccccc1-2 (stereo not drawn) | 27.2 | 35.1
CCn1cc(S(=O)(=O)N2CCC3(CC2)C(=O)NCCCN3C)cn1 | 15.5 | 15.3
Cn1cnnc1SCC(=O)c1ccc(C(C)(C)C)cc1 | -14.0 | -4.0
Cc1ccc(C(=O)N2CCC3(CC2)SCCN3C(=O)c2cccc(F)c2)cc1[N+](=O)[O-] | -3.9 | 8.5
CCN(Cc1nc2ccc(F)cc2[nH]1)CC1CCCN(CCc2cccc(F)c2)C1 (stereo not drawn) | -2.1 | -9.9
Cc1[nH]c2nc3c(c(=O)n(Cc4ccc(Cl)cc4Cl)c(=O)n3C)n2c1C | 0.4 | 5.3
CCc1nn2c(nnc3c(=O)n(N(C)C)ccc32)c1-c1ccc(Cl)cc1 | 15.0 | 11.1
O=C1c2ccccc2C(=O)c2c(NC(=O)C34CC5CC(CC(C5)C3)C4)cccc21 | -18.9 | -26.0
COCCN(CCC(=O)NC(C)c1ccccc1)c1nc(-c2ccco2)nc2cc(Cl)ccc12 (stereo not drawn) | 21.9 | 18.3
CCONC(=O)c1[nH]nc(-c2ccccc2)c1Br | 1.6 | 11.0
CCOc1nc(-c2cccc(F)c2)n(-c2ccc(NC(=O)Nc3cccc(Cl)c3)cc2)n1 | 5.0 | 11.8
COC(=O)CN(CC(=O)OC)S(=O)(=O)c1ccc(Cl)nc1 | 2.0 | 1.6
CCCCn1nc(NS(=O)(=O)c2ccccc2)c2cc3cc(C)ccc3nc21 | 1.2 | -1.8
Clc1cc(CSc2ncnc3ccccc23)cc2c1OCCO2 | 8.2 | 7.0

Profiles from above. Values in the order: NPYLR7 agonist	NPYLR7 agonist max-min
COCCN(CCC(=O)NC(C)c1ccccc1)c1nc(-c2ccco2)nc2cc(Cl)ccc12 (stereo not drawn) is listed as 21.9	18.3
O=C1c2ccccc2C(=O)c2c(NC(=O)C34CC5CC(CC(C5)C3)C4)cccc21 is listed as -18.9	-26.0
COC(=O)CN(CC(=O)OC)S(=O)(=O)c1ccc(Cl)nc1 is listed as 2.0	1.6
